Ecoli growth = E. coli growth inhibition, primary screen, OD600. AID 1053175, 2014. Escherichia coli growth, 23 h; hits give low values. actives 0.21% (n = 330,000). OD600 absorbance (no concentration beside the values);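 active = OD600 absorbance below the run mean of sample wells minus 3.6 SD, in any replicate, cut at about 0.56 in these data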;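 note: stock transfer was 300 nL into about 60 µL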
UCH37 DUB inh = inhibitors of human UCH37 deubiquitinase, primary screen, biochemical, Ub-AMC cleavage, fluorescence; inhibition, % (no concentration beside the values); purified proteasome/UCH37; actives 0.33% (n = 330,000); AID 588478, 2011; Ubiquitin carboxyl-terminal hydrolase isozyme L5 (Homo sapiens), Q9Y5K5;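 active = mean of two replicates above 20%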;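 note: 0% = compound-free wells with enzyme and 100% = wells lacking proteasome; stock transfer was 100 nL into about 20 µL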
Target sequence (Q9Y5K5 whole entry, looked up): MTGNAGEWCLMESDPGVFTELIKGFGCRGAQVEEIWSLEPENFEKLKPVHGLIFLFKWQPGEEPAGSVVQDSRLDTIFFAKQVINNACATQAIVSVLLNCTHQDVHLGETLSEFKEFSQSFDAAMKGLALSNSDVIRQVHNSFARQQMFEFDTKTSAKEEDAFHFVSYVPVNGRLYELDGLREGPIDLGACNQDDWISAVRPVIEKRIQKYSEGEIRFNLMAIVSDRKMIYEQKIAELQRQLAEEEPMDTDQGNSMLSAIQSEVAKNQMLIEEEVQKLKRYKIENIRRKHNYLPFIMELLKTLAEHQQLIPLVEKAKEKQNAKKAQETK
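Test system – human UCH37 enzyme supplied as purified proteasome complex · Incubation – 30 min preincubation with enzyme, 25 min cleavage at room temperature · Detection – AMC fluorescence from Ub-AMC cleavage, excitation 355 nm, emission 460 nm · Benchmarks – no-proteasome wells (full inhibition) and compound-free wells (no inhibition)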
B2AR ag = beta2AR agonists driving receptor internalization, primary screen, cell-based, FAP fluorogen, flow cytometry; Am2.2-beta2AR cells; reference of the scale not given here; response, % (no concentration beside the values); actives 0.43% (n = 340,000); Beta-2 adrenergic receptor (Homo sapiens), P07550;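 active = response above a set limit, near 3 SD of response in nonfluorescent compounds, cut at about 42% in these data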;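 note: stock transfer was 100 nL into about 11 µL; a reference agonist was the positive control; negative values mostly stem from fluorescent compounds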
FGF22 binding = binders of human FGF22 protein, primary screen, FGF22 synaptogenesis inhibitor project, biophysical, thermal shift, single point | recombinant FGF22 thermal shift, SYPRO orange fluorescence; percent of sucrose octasulfate shift, DMSO zero | calls only at 9.99 µM | actives 1.5% (n = 340,000);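 active = melting point raised past a set limit in the mean and every replicate; three in four hits are not shown here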
Target sequence (Q9HCT0 whole entry, looked up): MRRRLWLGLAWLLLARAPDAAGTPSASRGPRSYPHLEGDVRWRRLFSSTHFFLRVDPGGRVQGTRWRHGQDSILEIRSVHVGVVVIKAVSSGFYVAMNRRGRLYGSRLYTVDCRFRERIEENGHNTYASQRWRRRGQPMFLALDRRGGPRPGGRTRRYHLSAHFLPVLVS
HNF4A DNA FP = change in binding of human HNF4A to DNA, primary screen, biochemical, fluorescence polarization, FITC-DNA; Hepatocyte nuclear factor 4-alpha (Homo sapiens), P41235; 1 h; activity change, % at 10 µM; actives 0.3% (n = 360,000); AID 1224865, 2016; in the data active = activity change above about 30%, passing the limit was not always enough;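 note: controls were the assay level and a saturating level of protein; the project sought stronger binding though the title names inhibitors; some compounds called inactive have numbers as strong as hits; positive values seem to mean higher polarization but the record does not say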
Target sequence (P41235 whole entry, looked up): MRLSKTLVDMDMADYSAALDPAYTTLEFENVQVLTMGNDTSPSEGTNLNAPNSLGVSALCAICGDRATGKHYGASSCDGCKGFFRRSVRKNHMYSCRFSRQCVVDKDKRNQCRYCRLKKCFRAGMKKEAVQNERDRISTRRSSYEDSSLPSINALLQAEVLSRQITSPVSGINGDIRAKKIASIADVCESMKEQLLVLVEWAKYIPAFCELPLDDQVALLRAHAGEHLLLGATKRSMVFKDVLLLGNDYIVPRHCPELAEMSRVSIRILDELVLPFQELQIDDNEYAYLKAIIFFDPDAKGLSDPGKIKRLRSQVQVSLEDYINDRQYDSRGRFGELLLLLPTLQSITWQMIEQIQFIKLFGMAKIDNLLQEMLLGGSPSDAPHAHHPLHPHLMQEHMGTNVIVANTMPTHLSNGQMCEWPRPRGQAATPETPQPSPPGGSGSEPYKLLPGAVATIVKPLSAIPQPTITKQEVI
ALR H2O2 inh = inhibitors of human ALR sulfhydryl oxidase, primary screen, biochemical, H2O2 detection, HRP-luminol luminescence, single point | inhibition, % (no concentration beside the values) | actives 3.8% (n = 290,000) | purified ALR, DTT oxidation;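 active = mean and each replicate at 75% or more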;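 note: stock transfer was 7.5 nL into about 7.5 µL; 0% = neutral wells and 100% = wells with inactivated enzyme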
Ecoli rRNA inh = reduced GFP signal of wild-type E. coli, primary screen, bacterial rRNA inhibitor project, GFP/RFP fluorescence, OD600, single point; E. coli WT GFP vs humanized-ribosome RFP mutants, 24 h; hits give low values; DMSO median 0, no signal -100; GFP signal change (wild-type ribosome), % (concentration not given with the values); actives 1.6% (n = 350,000); AID 720706, 2013;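 active = significant combined selectivity score with lowered wild-type GFP, culture density cut under 30%, mutant RFP and density less affected; inactive = any of these conditions unmet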; note: one replicate is shown; some compounds called inactive have numbers as strong as hits
Ecoli rRNA inh OD600 = recorded beside Ecoli rRNA inh, whose call it bears; OD600 change, %; measured here: OD600 growth;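 optical density of the mix in the first replicate; 0 = DMSO median and -100 = no signal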
Ecoli rRNA inh RFP = recorded beside Ecoli rRNA inh, whose call it bears; RFP signal change, %; measured here: RFP humanized mutant strains;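 first replicate; 0 = DMSO median and -100 = no signal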
* marks the source's active call; other numbers are inactive results; i = inactive; · = not tested or not shown.

SMILES	Ecoli growth	UCH37 DUB inh	B2AR ag	FGF22 binding	HNF4A DNA FP	ALR H2O2 inh	Ecoli rRNA inh	Ecoli rRNA inh OD600	Ecoli rRNA inh RFP
Cc1ccc(S(=O)(=O)NCc2nc3ccccc3[nH]2)cc1	0.753	5.3	-2.0	i	-0.4	-6.1	4.7	9.2	3.4
O=C(O)C1CSC2c3ccccc3C(=O)N12 (stereo not drawn)	0.667	2.2	1.9	i	-3.6	-17.8	4.0	0.7	-2.8
Cc1sc2c(c1C)C(=O)/C(=C\Nc1ccccn1)S(=O)(=O)N2C	0.702	-17.7	-17.0	i	0.9	-10.9	-3.0	5.1	14.7
CC(C)CNS(=O)(=O)c1ccc(CCC(=O)O)cc1	0.716	0.6	2.8	·	-0.7	-19.6	·	·	·
O=C(CN(c1ccccc1Cl)S(=O)(=O)c1ccccc1)N/N=C/c1ccccc1C(=O)O	·	·	21.4	i	2.2	-1.3	-14.5	-19.4	2.0
O=C(CCSCc1ccccc1F)NCc1ccc(F)cc1	0.663	0.8	0.2	i	-1.1	3.0	-3.8	-14.6	-0.8
Cc1nc(SCC(=O)N2CCC(Cc3ccccc3)CC2)[nH]c(=O)c1C	0.685	0.0	2.0	i	-0.8	-2.3	-10.7	-20.9	2.5
CC(C)=CCC/C(C)=C/C(N)=O	0.67	-0.6	-0.2	i	3.0	-12.4	3.7	4.8	1.6
CC1(C(=O)Nc2ccc(S(=O)(=O)Nc3ncccn3)cc2)CCCC1	0.67	-2.8	-10.8	i	6.9	·	10.8	7.6	3.9
CC(C)c1ccc(NC(=O)C2C3C=CC(CC3)C2C(=O)O)cc1 (stereo not drawn)	0.683	1.9	-0.7	i	1.1	1.4	·	·	·
O=c1c2ccccc2nc2n1CCC2O (stereo not drawn)	0.735	-0.4	0.1	i	-0.3	-26.2	1.8	-2.9	-1.0
O=C(NCCCCCCNC(=O)C1CCCC1)C1CCCC1	0.706	1.4	0.3	·	-3.5	-4.6	·	·	·
O=C(C(Cc1ccccc1)n1cccc1)N1CCN(c2cccc(Cl)c2)CC1 (stereo not drawn)	0.759	4.7	4.2	i	-0.2	·	-3.3	-12.0	1.9
Cc1ccc2oc(=O)c3cnn(CC(=O)NCCCOC(C)C)c3c2c1	0.785	2.9	4.0	i	4.3	8.9	9.7	11.4	-4.3
CCOc1ccc2nc(NC(=O)C3CCCN(S(=O)(=O)c4cccc5nonc45)C3)sc2c1 (stereo not drawn)	0.715	3.1	10.0	·	-2.4	-7.1	·	·	·
Cc1occc1-c1nnc(SCc2nnc(-c3ccc(Cl)cc3)o2)n1C	0.679	1.5	-3.7	·	0.6	5.0	1.4	9.2	-4.5
Nc1sc(-c2ccccc2)n[n+]1Cc1cccc2cccnc12	0.669	2.5	-6.3	i	3.3	·	-12.4	-25.3	1.2
O=C(Nc1ccc2c(c1)OCCO2)C1CCN(c2ncccn2)CC1	0.696	-3.9	-6.2	i	2.0	-2.5	4.1	-5.6	1.3
COc1ccccc1/C=C\C=N\NC(=O)CCn1nnc2ccccc21	·	·	-1.4	i	0.6	-1.0	-2.6	6.8	-1.9
COc1ccc(CN2C(=O)C(Cc3ccccc3)Nc3ncnc(N4CCCCC4)c32)cc1 (stereo not drawn)	0.8	5.3	19.1	·	3.3	2.3	·	·	·
O=C(NCCN1CCc2ccccc2C1)C1CCN(S(=O)(=O)N2CCCCC2)CC1	0.606	1.6	10.7	i	-1.6	-2.2	4.5	-0.6	-6.4
COc1ccc(C2NC(=S)N(c3ccccc3)C(C)=C2C(=O)Nc2ccccc2)cc1 (stereo not drawn)	0.68	1.1	-2.3	·	-0.9	0.2	·	·	·
Cn1c(C2=C(O)CN(c3ccc4c(c3)OCCO4)C2=N)nc2ccccc21	0.691	0.6	1.6	·	2.5	-0.6	5.7	0.5	-3.1
NC(=O)COC(=O)/C=C/c1ccc(S(=O)(=O)N2CCCCCC2)cc1	0.681	-2.1	5.9	i	-2.8	16.0	-3.7	9.6	0.2
COc1ccc(OCCCC(=O)OC(C)C(=O)Nc2ccc(NC(C)=O)cc2)cc1 (stereo not drawn)	0.71	1.4	3.0	i	-0.3	-3.6	2.2	2.1	0.2
COc1ccc(-c2nnc(SCc3c(C)noc3C)n2N)cc1OC	0.693	1.7	1.7	·	2.0	-35.7	·	·	·
O=C(COC(=O)c1cccnc1Cl)c1ccc(OC(F)F)cc1	0.696	0.9	-2.9	i	-0.4	-5.6	0.5	-10.9	-1.4
COc1ccc(CN2C(=NC(=O)c3ccccc3)SC3CS(=O)(=O)CC32)cc1OC (stereo not drawn)	0.665	2.8	-3.2	i	1.6	-7.0	-0.4	14.5	-1.4
CC(C)CC1NC(=O)c2cc3ccccc3cc2-n2c1nc1cc(Cl)ccc1c2=O (stereo not drawn)	·	·	·	i	-2.7	·	3.5	31.6	3.6
CCC1C(=O)CC(c2ccccc2)NC1c1ccccc1 (stereo not drawn)	0.694	3.3	-1.2	i	2.9	-2.9	-23.6	-38.5	-7.4
Cc1ccc(S(=O)(=O)N2CCCCC2)cc1NC(=O)c1ccncc1	0.676	-0.2	-3.2	·	-0.8	·	15.5	6.8	-0.5
Cc1cc(OCC(=O)NCCCN2CCOCC2)c2c(C)c(C)c(=O)oc2c1	0.692	-134.1	2.5	i	4.3	5.3	-0.4	3.9	0.0
CC(=O)Nc1ccc(S(=O)(=O)N2CCN(S(=O)(=O)N3CCCCC3)CC2)cc1	0.674	2.7	4.4	i	-6.7	-0.6	5.2	5.2	1.5
Nc1nonc1C(=O)NCCNC(=O)c1cccc(Cl)c1	0.63	1.9	2.0	i	1.2	-0.3	-1.7	-5.5	-1.1
Cc1cc(OC(C)C(=O)NNC(=O)Nc2ccc(F)cc2F)cc(C)c1Cl (stereo not drawn)	0.706	-2.6	-1.9	i	1.2	-2.2	2.6	5.7	1.3
CC(=O)Oc1ccc(-c2nc3c(C)cccc3c(=O)o2)cc1	0.628	-5.4	10.2	i	-3.3	·	-1.9	-1.4	-5.9
CCCCC(=O)Nc1ccc(C(=O)NNC(=O)c2ccco2)cc1	0.596	-5.6	14.4	·	-1.1	6.9	4.5	9.9	1.0
COCCN1C[C@@H](CO)O[C@@H](n2cnc3c(N4CCN(c5ccccc5)CC4)ncnc32)C1	·	·	·	i	1.8	·	7.1	-1.2	4.9
Cc1ccc(C)c(S(=O)(=O)N2CCN(C(=O)c3ccnn3C)CC2)c1	0.74	2.0	-1.0	i	-0.6	2.0	5.7	2.7	-1.7
CN(CC(=O)Nc1ccccc1N1CCOCC1)S(=O)(=O)c1ccc(Cl)cc1	0.72	4.9	-9.2	·	1.4	-3.0	·	·	·
CCOC(=O)n1c(=O)n(Cc2ccccc2C)c2ccccc21	0.679	1.6	4.8	i	0.3	0.2	-30.9	-57.0	-4.1
CC(Sc1nc2ccccc2c(=O)[nH]1)C(=O)O (stereo not drawn)	0.694	-3.1	7.4	·	0.6	1.3	·	·	·
CCOC(=O)c1c(N)nn(C(=O)CC)c1-c1ccccc1	0.668	3.6	-2.8	·	0.2	-14.2	·	·	·
COCCN(CCOc1cc(C)cc(C)c1)Cc1ccc(Cl)cc1	0.673	3.4	3.7	i	-1.5	-0.6	4.7	2.6	2.4
O=C(CSCC(=O)N1CCOCC1)Nc1nc(-c2ccccc2)cs1	0.629	3.5	-3.8	i	7.2	1.0	-6.9	-7.8	1.6
O=C(Nc1ccc2c(c1)OCCO2)c1c[nH]c(=O)n(-c2ccc(F)c(Cl)c2)c1=O	0.713	4.1	3.7	i	-0.9	16.8	-3.2	-1.6	-0.7
COc1ccccc1C(=O)COC(=O)c1ccc(-n2cnnn2)cc1	0.686	1.5	-6.1	i	3.8	-1.7	-0.4	5.0	2.9
Cc1ccc(C(=O)NN=CC(=O)c2ccccc2)c(C)c1	0.661	2.8	3.2	i	6.5	2.7	6.6	16.9	-0.9
CC(=O)Nc1ccc(S(=O)(=O)NCC2CCC(C(=O)N3CCCCC3)CC2)cc1 (stereo not drawn)	0.631	-0.3	-8.2	i	-2.3	0.2	-3.8	2.6	5.0
CC(=O)Nc1cccc(-c2ccnc3c2CC(C)(C(=O)NCC2CC2)O3)c1 (stereo not drawn)	·	·	·	i	-6.0	·	-2.5	-17.6	-6.6
CN(C)CCNc1ncnc2c1ncn2[C@H]1CN(Cc2ccc(Cl)cc2)C[C@@H](CO)O1	·	·	·	i	5.5	·	15.5	8.9	2.4
Cc1csc(SCC(=O)N(C)CC(=O)Nc2ccccc2Cl)n1	0.678	3.6	6.6	i	-2.2	-2.7	10.8	-4.7	0.3
O=C(NNC(=S)NCC1CCCO1)c1ccc(S(=O)(=O)N2CCOCC2)cc1 (stereo not drawn)	0.686	9.8	0.7	i	-1.1	28.2	8.6	-0.6	-1.5
CSc1snnc1-c1ccccc1	0.667	1.5	1.6	·	-3.0	-19.4	6.8	6.8	2.0
Cc1ccccc1Nc1ncnc(N)n1	0.686	0.9	-0.5	i	0.3	-5.1	15.7	2.0	-1.9
CC1CCN(c2nc3ccc(C(=O)N4CCN(Cc5ccccc5)CC4)cc3s2)CC1	0.728	5.3	0.8	i	1.4	·	-33.4	-59.2	-0.3
S=C(NCCc1ccccc1)N1CCOCC1	0.636	-0.1	-8.1	i	-4.8	-0.4	7.8	6.0	-2.3
CC(C)C(=O)Nc1nnc(-c2ccco2)s1	0.688	0.8	-12.7	i	5.8	-2.2	·	·	·
CCOc1ccc(N=Cc2c(O)c3ccccc3oc2=O)cc1	0.694	-12.8	-8.4	·	2.3	-28.2	·	·	·
CC12CS(=O)(=O)CC1SC(=S)N2Cc1ccccc1 (stereo not drawn)	0.65	1.6	1.8	i	1.0	-1.3	6.0	5.4	1.2
CCOc1ccccc1NC(=O)COn1nnc2ccc(Cl)cc21	0.675	3.1	-7.9	·	1.3	-9.6	·	·	·
O=C(Cn1nnc2ccccc2c1=O)NCC1CCC(C(=O)O)CC1 (stereo not drawn)	0.69	3.7	-2.3	i	2.3	·	9.3	11.0	-4.0

By substructure: those above with fluorine.
SMILES	Ecoli growth	UCH37 DUB inh	B2AR ag	FGF22 binding	HNF4A DNA FP	ALR H2O2 inh	Ecoli rRNA inh	Ecoli rRNA inh OD600	Ecoli rRNA inh RFP
O=C(CCSCc1ccccc1F)NCc1ccc(F)cc1	0.663	0.8	0.2	i	-1.1	3.0	-3.8	-14.6	-0.8
O=C(COC(=O)c1cccnc1Cl)c1ccc(OC(F)F)cc1	0.696	0.9	-2.9	i	-0.4	-5.6	0.5	-10.9	-1.4
Cc1cc(OC(C)C(=O)NNC(=O)Nc2ccc(F)cc2F)cc(C)c1Cl (stereo not drawn)	0.706	-2.6	-1.9	i	1.2	-2.2	2.6	5.7	1.3
O=C(Nc1ccc2c(c1)OCCO2)c1c[nH]c(=O)n(-c2ccc(F)c(Cl)c2)c1=O	0.713	4.1	3.7	i	-0.9	16.8	-3.2	-1.6	-0.7

Screening data deposited in PubChem BioAssay by several laboratories.

Not all compounds are listed; the hit share may differ from the screen's.
